Assay outcomes as filed in PubChem.
Ba CapD inh: CapD enzyme inhibition; purified CapD enzyme, fluorescence intensity read-out; active compounds read low; some hits fall short of the stated cut; hit rate 0.23% among 140,000; AID 492967; z-score (test concentration not listed);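 active = z-score under -4 in either of two replicates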;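 also: stock transfer was 100 nL into about 40 µL; score is relative to mean and spread of the plate; one replicate is shown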
AID504770: growth inhibitors of E. coli YBA685 in a screen for V. cholerae RctB (chromosome II replication) inhibitors; E. coli YBA685 rctB-dependent plasmid, OD600 growth, 3 h; active compounds read low; z-score (concentration not given with the values); hit rate 0.27% among 130,000; AID 504770;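 active = z-score under -2 on both plates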;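 also: wells of about 30 µL received 100 nL stock; score is relative to mean and SD of the test wells; the first replicate is given; strong numbers were not always called active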
* hit, by the source's call; . = not tested or not shown; & = joins results of further samples.

Structure | Ba CapD inh | AID504770
CCC(=O)Nc1cccc(C(=O)N/N=C/c2ccncc2)c1 | -0.055 | .
COc1ccc(CCC(=O)Nc2ccc(-c3noc(-c4ccccc4Br)n3)cc2)cc1 | 0.3 | 1.6
O=C(COC(=O)c1ccc(N2C(=O)c3ccccc3C2=O)cc1)Nc1ccc(N2CCOCC2)cc1 | . | -0.75
Cc1ccc(S(=O)(=O)N(c2ccccc2)C2CC(C)Nc3ccccc32)cc1 (stereo not drawn) | -0.06 | -0.05
COc1ccc(N2CCN(CCNC(=O)c3cc(-c4ccccn4)nc4ccccc34)CC2)cc1 | 0.3 | -0.45
O=C(NCc1ccccc1)NC1(C(F)(F)F)Oc2ccccc2O1 | 6.5 | .
CC(=O)N1CCC(N(C(=O)c2cc(Cl)nc(Cl)c2)C2CC2)CC1 | -0.74 | .
Cc1ccc(C)c(NC(=O)NCCCN2CCc3ccccc3C2)c1 | 0.49 | -0.7
COC(=O)c1scc(C)c1NN1C(=O)c2ccccc2C1=O | 0.03 | -0.65
COc1ccc(Cl)cc1NC(=O)CSCC(=O)O | 0.7 | -0.1
Cc1cccc(C=Nc2c(C)n(C)n(-c3ccccc3)c2=O)c1 | 0.09 | -0.05
FC(F)(F)Oc1ccc(N=Cc2ccc[nH]2)cc1 | -0.27 | -0.2
O=C(NCCSc1ccc(Cl)cc1)c1ccc(Cl)cc1Cl | 0.24 | .
COc1nc(-c2ccccc2Cl)c2cc(Br)ccc2n1 | -0.24 | 0
CC1=C(C(=O)Nc2ccc(Br)cn2)C(c2ccccc2C(F)(F)F)C2=C(CCCC2=O)N1 (stereo not drawn) | 44 | .
Cc1noc(C)c1C(=O)NCC(c1ccccc1)c1c[nH]c2ccccc12 (stereo not drawn) | -0.6 | -1.2
CN1C=C(C(N)=O)C=C/C1=C(/C#N)c1nc2ccccc2s1 | . | -0.8
CCn1nc(-c2ccccc2)cc1-n1cnc2ccccc21 | -0.14 | -1.1
CCc1ccc(NC(=O)CSc2nc3cc(C(=O)NCCCOC(C)C)ccc3c(=O)n2Cc2ccco2)cc1 | -1.1 | .
CN(C)/C=N/NS(=O)(=O)c1ccccc1 | 0.54 | -0.35
Cc1cc(NNC(=S)S)nc(N)n1 | . | 1.4
O=C(COc1ncn(-c2ccccc2)n1)N/N=C/c1c[nH]c2cnc(OCc3ccccc3)cc12 | 6.3 | .
CCN(CC)S(=O)(=O)c1ccc(C(=O)NCCn2c(C)cc3ccccc32)cc1 | . | 0.65
CCS(=O)(=O)N1CCCC(C(=O)NC(C)c2ccccc2)C1 (stereo not drawn) | -0.63 | 1.9
CCN(CC)C(=O)c1cc2c(n(-c3ccc(OC)cc3)c1=O)CC(C)(C)CC2=O | . | 0.2
COCc1nnc(NC(=O)/C=C/c2ccc(OC)cc2)s1 | 0.86 | -1.1
C1CCN2CC3CC(CN4CCCC[C@@H]34)C2C1 (stereo partly drawn) | 0.79 | 0
CCc1cc(SC(C)C(=O)c2c(N)n(C)c(=O)n(C)c2=O)n2c(nc3ccccc32)c1C#N (stereo not drawn) | . | 0.2
Cc1c(C(=O)N2CC(C)OC(C)C2)sc2nc(-c3ccccc3)cn12 (stereo not drawn) | 0.28 | -0.55
O=C(Nc1ccc(Cl)cc1)c1sccc1Oc1ccccc1[N+](=O)[O-] | -0.66 | .

Molecules listed so far containing a CF3 group, in the order listed:
Structure | Ba CapD inh | AID504770
O=C(NCc1ccccc1)NC1(C(F)(F)F)Oc2ccccc2O1 | 6.5 | .
FC(F)(F)Oc1ccc(N=Cc2ccc[nH]2)cc1 | -0.27 | -0.2
CC1=C(C(=O)Nc2ccc(Br)cn2)C(c2ccccc2C(F)(F)F)C2=C(CCCC2=O)N1 (stereo not drawn) | 44 | .

(next part)
Structure | Ba CapD inh | AID504770
COc1ccc(OC)c(C2C(C(=O)OC(C)C)=C(C)NC3=C2C(=O)CC(c2ccc(OC)c(OC)c2)C3)c1 (stereo not drawn) | 13 | .
O=C(Cc1c[nH]c2ccccc12)N1CCN(c2ccccc2)CC1 | . | 0.5
COc1cccc(/C=C2/SC(=Nc3ccccc3)N(CCc3ccccc3)C2=O)c1O | 0.17 | -0.3
COC(=O)C(CC(C)C)NC(=O)c1ccccc1Cl (stereo not drawn) | . | 0.3
C=CCN1C(=O)/C(=C\c2ccccc2Cl)N=C1c1ccccc1 | 0.8 | -1.2
CN(C)C(CNC(=O)Cc1n[nH]c(=O)c2ccccc12)c1cccs1 (stereo not drawn) | . | 1.6
CC1(C)CC(=O)C2=C(C1)NC(Nc1nc3ccccc3o1)=NC2c1ccccc1 (stereo not drawn) | -1.1 | -0.6
O=C(OCc1ccccn1)C1CCCCN1S(=O)(=O)c1ccccc1 (stereo not drawn) | . | 0.1
CCCn1c(N)c(C(=O)CSc2nnc(Nc3cccc(OC)c3)s2)c(=O)n(C)c1=O | . | -0.3
COc1ccc(/C=N/n2c(=S)[nH]nc(C)c2=O)cc1 | -2.4 | -0.75
Cc1ccc(C(=O)Cn2c(-c3ccccc3)noc2=O)cc1 | . | -0.55
O=C(Nc1ncc(C(O)(C(F)(F)F)C(F)(F)F)s1)c1ccccc1Cl | . | 0.4
CN(C(=O)C1CC1)c1ccccc1C(=O)NCc1ccccc1 | 0.12 | -0.6
COC(=O)c1sc(NC(=O)c2ccco2)c(C#N)c1C | . | -0.15
Cc1ccc2c(nc3s/c(=C\c4ccc(-c5cccc(C(F)(F)F)c5)o4)c(=O)n32)c1C | 0.31 | .
CN(C1CCN(Cc2c(F)cccc2Cl)C1)S(=O)(=O)c1cc(Br)ccc1Br (stereo not drawn) | 0.48 | .
COC(=O)c1cc(-c2ccco2)nc2c1c(=O)n(C)c(=O)n2CC(C)C | . | -0.1
CCc1ccc(N2NC(=O)C(=C(C)C)C2=O)cc1 | 0.08 | 1.9
CCSc1ncnc2c1oc1ccccc12 | -0.45 | -1.1
O=C(OCCN1CCCCC1)c1cccc(F)c1 | 0.045 | -0.25
CC(C)NCC(O)COc1ccc2ccccc2c1 (stereo not drawn) | 0.43 | 0.4
O=C(Oc1ccc2c(c1)OCO2)c1c(Cl)cccc1Cl | -1.2 | 0
c1ccc(C(c2nnnn2C2CCCC2)N2CCN(c3ccccc3)CC2)cc1 (stereo not drawn) | . | 2.3
O=C(c1cnc2cc3c(cc2c1)OCCO3)c1ccccc1O | . | -0.5
Cc1nc2cc(NC(=O)c3ccc(S(=O)(=O)N4CCCC4)cc3)ccc2s1 | -0.21 | .
Cc1[nH]nc2nc(SCC(=O)NCc3ccccc3)n(-c3ccc(Br)cc3)c(=N)c12 | 0.065 | .
Clc1ccc(-c2ccn[nH]2)c(Cl)c1 | -0.77 | 2
CCC(C(=O)OC)n1c(-c2ccccc2)nc2ccccc2c1=O (stereo not drawn) | . | -0.1
CCNc1nc(NC(C)C)nc(Oc2ccc(=O)n(-c3ccccc3)n2)n1 | -0.65 | .
CCNC(=O)CC1C(=O)N(c2ccccc2)C(=O)N1Cc1ccc(C)cc1 (stereo not drawn) | -0.14 | -0.15
Oc1ccc(C2CC(c3ccccc3O)=Nc3ccccc3S2)cc1 (stereo not drawn) | 2.9 | 0
CC(C)CCNC(=O)C1CCN(C(=O)N(C)C)CC1 | 0.66 | 1.1
CCOc1ccc2c(c1)SC1=NS(=O)(=O)CCN12 | 0.96 | -0.5
COC(=O)COc1ccc2c(c1)C(=O)c1cc(OCC(=O)OC)ccc1-2 | -0.25 | 0.1
CCOC(=O)c1cc(C(N)=S)c(C)nc1C(F)(F)F | -0.06 | .
Cc1nnc(C)n1/N=C/C=C\c1ccco1 | -4.4* | 2.1
COC(=O)C1=C(C)NC(=O)NC1c1cn(-c2ccccc2)nc1-c1ccc(F)cc1 (stereo not drawn) | 0.37 | 0.15
CCc1ccc(C2=NN(c3ccccc3)C3(SC(c4ccccc4)=NN3c3ccccc3)c3ccccc32)cc1 (stereo not drawn) | 2.1 | .
FC(F)(F)C1=Nc2cc(Cl)c(Cl)cc2N=C(c2cccs2)C1 | -0.18 | .
O=C(NCc1ccccc1)c1c[nH]c2ccc(S(=O)(=O)Nc3ccccc3F)cc2c1=O | -0.31 | -0.4
COc1ccccc1NC(=O)CC(=O)Nc1ccccc1OC | -0.42 | -0.45
O=C(Cn1c2ccccc2c(=O)c2ccccc21)Nc1ccc(Oc2ccc3c(c2)C(=O)N(Cc2ccco2)C3=O)cc1 | 6.8 | .
CSc1nc(-c2ccccc2)nc(SC)c1C#N | 0.055 | -0.35
COc1cccc(C(=O)Nc2nnc(CCS(=O)(=O)c3ccc4ccccc4c3)s2)c1 | -0.28 | .
COc1ccc2oc(=O)c(C(=O)NCc3ccc4c(c3)OCO4)cc2c1 | . | 0.2
O=c1[nH]c2cc3c(cc2[nH]c1=O)OCCO3 | . | 0.65
O=C(NCc1ccccn1)c1nnc(-c2cccc(Cl)c2)o1 | -0.39 | 0.05
Cc1sc(NC(=O)C(c2ccccc2)c2ccccc2)c(C(N)=O)c1C | 0.83 | -0.25
O=C(CS)Nc1ccccc1F | . | -0.6
Cc1c(CC(Cl)(Cl)Cl)c2c(n1-c1cccc(F)c1)CC(C)(C)CC2=O | -0.46 | .
COc1ccc(-n2c(C)nc3cc(C(=O)NCc4ccc5c(c4)OCO5)ccc32)cc1 | 0.08 | .
C/C=C(/C(=C/C)c1ccc(O)cc1)c1ccc(O)cc1 | -1.9&-0.64 | 0.3
Cc1c2c(n3c(nc4ccccc43)c1C#N)SCC2 | 0.89 | -0.35
CCNC(=O)c1ncoc1-c1cccs1 | 68 | 0.05
COc1ccc(OC)c(N2C(=O)C3C4c5ccccc5C(C(=O)O)(c5ccccc54)C3C2=O)c1 (stereo not drawn) | 1.4 | .
CN(C)S(=O)(=O)Oc1ccc(C(=O)Nc2ccc(F)cc2F)cc1 | -0.25 | .
CCOC(=O)c1sc(NC(C)=O)cc1C | . | -0.95
COc1cc(OC)nc(C2CCN(C(=O)c3cc(OC)c(OC)c(OC)c3)CC2)n1 | 0.17 | .
Cc1nc2ccccc2c(=O)n1NC(=O)C1CCCCC1 | 0.1 | 0.35
CCC(=O)N1C2C=CC(C2)C1(C(F)(F)F)C(F)(F)F (stereo not drawn) | -0.01 | 2.4

A draw from above in order of heavy-atom count, smallest number first:
Structure | Ba CapD inh | AID504770
O=C(CS)Nc1ccccc1F | . | -0.6
CCNC(=O)c1ncoc1-c1cccs1 | 68 | 0.05
O=c1[nH]c2cc3c(cc2[nH]c1=O)OCCO3 | . | 0.65

Continuation:
Structure | Ba CapD inh | AID504770
Cc1nnc(SCC(=O)N2CCCC2)s1 | . | 2.1
CN(C)S(=O)(=O)c1cccc(C(=O)NC(C)(C)C)c1 | 0.32 | -0.7
O=C(COC(=O)c1ccco1)NC1CCCCC1 | -0.08 | 0.1
CCOc1ccccc1N1CCN(C(=O)[C@H](C)NC(N)=O)CC1 | . | -0.1
CCC1=NN(C(=O)c2cccc([N+](=O)[O-])c2)C(O)(c2ccc(Cl)cc2)C1 (stereo not drawn) | -0.65 | .
Cc1ccc2nc(SCC(N)=O)oc2c1 | . | 0.65
COc1cccc(NC(=O)COc2ncnc3ccccc23)c1 | . | 0.55
Nc1cc(N2CCCCC2)c2nonc2c1[N+](=O)[O-] | -0.53 | .
COCC(C)NC(=S)N1CCN(c2ccccc2Cl)CC1 (stereo not drawn) | . | -0.65
O=S(=O)(NCc1cccs1)c1ccc(-c2cc(C(F)(F)F)no2)s1 | 0.93 | 0.3
COc1ccc(-c2cc(-c3ccccc3)nc(SCC(=O)N3CCOCC3)c2C#N)cc1 | 3 | .
O=C1Nc2ccc(S(=O)(=O)Oc3ccc4ccccc4c3)c3cccc1c23 | 6.2 | .
CC1(C)CC(=O)C(N=Nc2ccc(C(F)(F)F)cc2[N+](=O)[O-])=C(O)C1 | -1.9 | .
Cc1cc(/C=C(/C#N)c2ccc(C(=O)O)cc2)c(C)n1-c1ccc(S(N)(=O)=O)cc1 | -2.4 | -0.25
O=C(CN1CSCC1=O)Nc1cccc(C(=O)NC2CC2)c1 | . | -0.65
Cc1ccc(S(=O)(=O)N2CCC(C(=O)OCC(=O)c3cc(C)n(C4CC4)c3C)CC2)cc1C | . | 0.45
Cc1onc(-c2ccccc2)c1C(=O)NCCN1CCOCC1 | 0.54 | -0.2
CC(=O)Nc1ccc(OC(F)(F)C(F)F)c(NC(C)=O)c1 | . | -0.55
Fc1ccccc1C=Nc1cccc2ccccc12 | 2.8 | -0.45
CCOC(=O)c1nn(-c2cccc(C(F)(F)F)c2)cc1O | -0.6 | 1.8
COc1cc(CC(=O)OCC(N)=O)cc(OC)c1OC | . | 0.85
COc1ccc(C2=NN(C(=O)CCC(=O)O)C(c3cccc(OC)c3OC)C2)cc1OC (stereo not drawn) | 27 | .
O=C(CC(Sc1ccc(Cl)cc1)c1ccc(Cl)cc1)C1CC1 (stereo not drawn) | 0.01 | -0.7
CCCN(Cc1c(F)cccc1F)CC1CC1 | 0.085 | 2.2
O=C(CSc1nnc2sc3ccccc3n12)Nc1ccc2c(c1)OCO2 | -0.23 | .
Cc1ccc2c(c1)C1CN(C)CCC1N2S(=O)(=O)c1c(C)[nH]c(=O)[nH]c1=O (stereo not drawn) | -0.55 | .
CCOC(=O)c1cnc(SCC(=O)OCC(=O)NC2(C#N)CCCC2)nc1N | . | -0.35
Nn1c(COc2cccc(Br)c2)nnc1SCC(=O)N1CCOCC1 | . | -0.15
COCCN1C(=O)/C(=C\c2ccc(OC(=O)C3C(C=C(Cl)Cl)C3(C)C)cc2)SC1=S (stereo not drawn) | -0.45 | .
